# PrP 5UTR inh – inhibition of PrP 5' UTR reporter expression; cell-based PrP 5' UTR mRNA reporter, plate reader; inhibition, % (test concentration not listed); 0.35% of 340,000 active; AID 488862;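 active = every replicate at 50% or more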;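 note: 0 = median of the neutral control wells; tested in H4 reporter cells; numbers are from one replicate; inactives centre near -14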
# Sa RN4220 lethal – kills Staphylococcus aureus RN4220; 0.33% of 330,000 active; S. aureus RN4220 growth, OD600, 16 h; inhibition, % (concentration not given with the values);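 active = z-score of -3 or lower and OD600 up to 0.18 on both plates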;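 note: plate controls were untreated cells for no effect and reference antibiotic for full effect; stock transfer was 100 nL into about 80 µL; one replicate is shown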
# BJeLR lethal – kills HRASV12-expressing BJeLR cells; inhibition, % (concentration not given with the values); 0.17% of 300,000 active; BJeLR (HRASV12) viability, CellTiter-Glo ATP luminescence, 48 h; reference of the scale not given here;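 active = replicate mean above 50%; inconclusive = above 50% but judged a plate artefact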;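 note: 50 nL library stock added to about 25 µL; numbers are from one replicate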
# Mtb hypoxia inh – reduces hypoxia-regulated biosensor signal in M. tuberculosis | M. tuberculosis hypoxia-regulated fluorescent reporter, fluorescence | fluorescence inhibition, % (concentration not given with the values) | 0.1% of 300,000 active | AID 1159583;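 active = 35 to 45% if threefold the growth effect, above 45% if 1.5-fold the growth effect; inactive = the rest, general growth blockers included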;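 note: wells of about 50 µL received 100 nL stock; 0% = vehicle wells and 100% = reference inhibitor wells; whole bacteria with a GFP reporter of the hypoxia response; strong numbers were not always called active; many hits fall short of the cut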
# Sa ugtP lethal – compounds lethal to S. aureus RN4220 ugtP deletion mutant; 0.54% of 330,000 active; growth inhibition, % (concentration not given with the values); OD600 growth, 16 h; some inactives read as strong as hits;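 active = z-score under -3 and OD600 up to 0.15 on both plates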;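 note: plate controls were untreated wells for no effect and antibiotic for full effect; wells of about 80 µL received 100 nL stock; the first replicate is given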
# Autofluor counter – compound fluorescence in toxin protease inhibitor counterscreen | fluorescence intensity (no concentration beside the values) | 3.1% of 360,000 active | AID 624483 | compound autofluorescence counterscreen, microsphere flow cytometry; active compounds read high;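 active = at least 3 SD above the mean of all compounds, about 16000 in these data; inconclusive = too few beads counted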;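 note: 100 nL of 1 mM stock went into each well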
# Mtb hypoxia inh growth – also measured in Mtb hypoxia inh; calls as there; growth inhibition, %; measured here: M. tuberculosis growth (absorbance);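 0% = vehicle and 100% = reference antibiotic; read after six days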
# Starred values were filed as active, the others as inactive; ? = inconclusive; . = not tested or not shown; & = joins results of further samples.
SMILES	PrP 5UTR inh	Sa RN4220 lethal	BJeLR lethal	Mtb hypoxia inh	Mtb hypoxia inh growth	Sa ugtP lethal	Autofluor counter
O=C(Nc1cccnc1)c1cc([N+](=O)[O-])ccc1Cl	-12	-0.4	-1	-7	6	5	5987
Cc1csc2ncnc(NC3CCN(Cc4ccccc4)CC3)c12	-13	-0.2	9	-17	9	1	5086
COc1cccc(OC)c1C1=NC(C)(C)CO1	-16	4.1	6	-3	-2	-2	3197
COc1ccc(-c2noc(CSc3nc4sc(C)c(C)c4c(=O)n3-c3ccccc3)n2)cc1	-19	3.1	11	-2	4	32	8447
CCN(CC)CCCn1c2c(c(SCC(=O)Nc3ccc4c(c3)OCCO4)nc1=O)CCC2	-5	2.7	-1	3	-2	6	5626
O=C(NN=Cc1cnc(N2CCOCC2)s1)c1ccccc1	.	1.7	.	0	9	3	.
O=C(CCC(=O)Nc1ccc(Br)cc1)N/N=C/c1ccc(F)cc1	-7	.	-5	.	.	.	2995
Cc1ccc(C2=NS(=O)(=O)N(C)C(C(=O)NCc3cccs3)=C2)cc1	-22	8.7	12	5	0	5	5653
O=C(COC(=O)[C@@H]1CCCN1S(=O)(=O)c1ccc(Cl)cc1)NC1CC1	-29	3.2	-4	10	5	3	5408
COc1ccc2ccccc2c1/C=N/N1C(=O)CSC1=S	-13	.	-10	.	.	.	3847
COCc1ccc(CN2CCCC(CCC(=O)NCc3ccc(C)o3)C2)o1 (stereo not drawn)	-12	6.7	-26	-2	7	1	4261
Clc1ccc(OCc2nn3c(-c4ccco4)nnc3s2)c(Cl)c1	-20	2.2	5	6	-3	-11	9502
Cc1ccc(C(=O)OCC(=O)NCc2cc(C)c(O)c(C)c2)cc1S(=O)(=O)N1CCCCC1	-1	2.4	.	5	1	-1	3893
CCC(C)NC(=O)Cn1cnc2sc(C)c(S(=O)(=O)N3CCN(c4ncccn4)CC3)c2c1=O (stereo not drawn)	-13	1.5	2	3	2	0	4474
CCOC(=O)c1sc2nc(CC(=O)OC)nc(NCCN(CC)CC)c2c1C	-3	4.6	-6	6	-4	19	18785*
CC(Sc1nnc(C2CC2)n1-c1ccccc1)C(=O)N1CCNC1=O (stereo not drawn)	-17	2.9	.	9	-1	13	?
COc1ccc(C2Nc3ccccc3C(=O)N2c2ccccc2)cc1CSc1ccccn1 (stereo not drawn)	-25	4.5	-1	16	3	6	2066
CC1=CC(=O)c2ccccc2C1=O	-17&-9	13&8.8	4	1&6	2&5	-2&1	6043&6080
COc1cccc(NC(=S)N(Cc2ccco2)C(C)c2ccco2)c1 (stereo not drawn)	-15	3.6	-4	14	10	22	1924
Cc1cccc(C(=O)Nc2ccccc2C(=O)Nc2ccc(C(=O)O)cc2)c1	-2	3.2	-3	-4	-13	6	3970
CCN(CC)CCCN(Cc1cc2cc(OC)ccc2[nH]c1=O)C(=O)Nc1ccc(F)cc1	4	-0.5	-3	-1	-7	8	3938
CCOc1ccc(CCNC(=O)CSc2cc(=O)n(CC)c3ccccc23)cc1OCC	8	4.4	-8	8	2	0	2477
CCCCNC(=S)N/N=C/c1sccc1C	-7	.	-4	.	.	.	4508
CSc1ccc(C=NNC(=O)c2cccs2)cc1	.	1.7	.	7	12	6	.
Cc1nnc(NC(=O)CN2CCN(Cc3ccc(F)cc3Cl)CC2)s1	-17	4.3	10	-4	6	5	3615
Cc1ccc(CNC(=O)c2c(-c3ccccc3)sc3ccccc23)o1	-18	8.7	.	11	4	-7	4085
Cc1ccc2cccc(OCc3cccc([N+](=O)[O-])c3)c2n1	.	-0.9	-5	-1	6	-3	3470
O=C(CN(CCc1ccccc1)C(=O)CN1C(=O)COc2ccccc21)NCc1ccco1	-27	3.6	1	8	1	11	23028*
N#CC1(c2ccccc2)CCC(=O)N1Cc1ccccc1 (stereo not drawn)	-41	2.0	-5	8	8	0	4028
O=S(=O)(/N=C(/Nc1nc2ccccc2s1)c1ccccc1)c1ccccc1	-70	4.8	.	-11	-6	-5	4048

# Next part
SMILES	PrP 5UTR inh	Sa RN4220 lethal	BJeLR lethal	Mtb hypoxia inh	Mtb hypoxia inh growth	Sa ugtP lethal	Autofluor counter
O=C(Nc1ccc(Cl)cc1)c1nc[nH]c1C(=O)N1CCN(c2ccccc2)CC1	-22	1.3	.	14	5	4	4014
O=C(COc1ccc(F)cc1)N1CCCc2ccccc21	-18	-1.3	1	11	5	2	.
O=c1[nH]c2ccccc2n2c(-c3ccncc3)nnc12	-6	0.7	.	.	.	10	3825
COc1ccccc1N1CCN(CC(=O)NCCc2ccc(S(N)(=O)=O)cc2)CC1	-39	4.3	-3	9	12	6	4534
COc1ccc(C2CC(c3ccccc3)=NN2C(=O)COC(=O)c2cccc(N)c2)cc1 (stereo not drawn)	-26	4.3	.	1	1	-11	3995
O=C(Cc1ccc(Br)cc1)N1CCN(C(=O)c2ccccc2)CC1	-33	1.5	.	1	0	4	8280
COc1ccc(-c2csc(Nc3ncccn3)n2)cc1C	-75	5.9	-12	6	6	9	4165
CCOc1ccc(S(=O)(=O)N(C)c2ccc(OCC(=O)Nc3ccccc3F)cc2)cc1	-17	1.3	.	1	1	7	6824
CC1=C(C(=O)Nc2cccnc2)C(c2ccccn2)n2nnnc2N1 (stereo not drawn)	-13	3.7	4	15	2	3	9045
N#Cc1nc(-c2cccs2)oc1NCc1ccc2c(c1)OCO2	1	-5.1	-4	.	.	10	3291
Cc1cccc(Sc2ccc([N+](=O)[O-])cn2)c1	-20	18	-2	12	2	1	2247
COc1ccc(Cc2nnc(NC(=O)c3ccc(F)cc3)s2)cc1OC	-21	1.2	-4	7	2	5	3321
CCN(CC)CC(=O)Nc1sc2c(c1C(=O)c1ccccc1OC)CCC2	-21	5.6	0	-9	-12	-3	3269
N#Cc1nc(Cc2cccc3ccccc23)oc1NCc1ccc(F)cc1	-11	-15	-11	7	5	18	2400
Cc1occc1-c1nnc(SCC(=O)N(C)C)o1	0	0.3	-3	5	5	1	19878*
CCOC(=O)C1(CCOc2ccccc2)CCN(Cc2ccncc2)CC1	-13	5.3	2	8	8	1	3795
Cc1ccc(C)c(Cn2nnc3c(=O)[nH]c(C4CCN(S(=O)(=O)c5ccc(S(=O)(=O)NC6CC6)cc5)CC4)nc32)c1	-19	-8.2	-16	-15	0	7	4020
CC(NCC#Cc1ccccc1)C(O)c1ccccc1 (stereo not drawn)	6	-2.7	6	-21	1	0	4367
Cc1ccc(NC(=O)Cn2nnc(C(=O)NCc3cccs3)c2N)c(C)c1	-16	0.6	-11	0	-12	5	4107
O=C(CSc1nc(-c2ccco2)cc(C(F)(F)F)n1)N1CCN(c2ccc(Cl)cc2)CC1	-3	5.7	2	3	6	-13	3189
CC1CCN(CCCNC(=O)C2CCN(S(=O)(=O)N3CCCCC3)CC2)CC1	-24	0.0	-4	13	5	7	6139
Cc1cc(Cl)c(OCCOCCN2CCCC(C)C2)c(Br)c1 (stereo not drawn)	5	16	-1	24	16	6	4475
CSc1nnc(CCNS(=O)(=O)c2ccccc2Br)n1C	-2	5.6	0	-14	0	4	3068
COc1ccc(Cl)cc1N1C(=O)CC(N2CCN(S(=O)(=O)c3ccccc3F)CC2)C1=O (stereo not drawn)	-7	0.8	.	-8	2	-6	3695
CCn1c(=O)c(C(=O)NNS(=O)(=O)c2ccc(NC(=O)OC)cc2)c(O)c2ccccc21	-6	7.1	2	-4	2	7	3672
CC(C)N1CCN(Cc2cccn2-c2nccs2)CC1CCO (stereo not drawn)	-28	5.7	-1	2	-2	0	4089
O=C(O)c1ccc(NCCc2ccc(Cl)cc2)c([N+](=O)[O-])c1	-13	10.0	-14	-1	5	14	4308
COc1ccc(-c2ccc3c(c2)S(=O)(=O)c2cccc(C(=O)NC4CCCC4)c2C3=O)cc1OC	-3	5.0	.	6	4	-8	3472
N/C(=N\OC(=O)c1cccc(Cl)c1)c1ccccn1	-35	.	-9	.	.	.	2011
Cc1cccnc1NC(=O)c1c(O)c2cccc3c2n(c1=O)CCC3	-4	11	6	16	-1	15	2363

# A different layout for some results above.
# Values run as follows: PrP 5UTR inh	Sa RN4220 lethal	BJeLR lethal	Mtb hypoxia inh	Mtb hypoxia inh growth	Sa ugtP lethal	Autofluor counter
> O=C(Cc1ccc(Br)cc1)N1CCN(C(=O)c2ccccc2)CC1
→ -33	1.5	.	1	0	4	8280
> COc1ccc(-c2csc(Nc3ncccn3)n2)cc1C
→ -75	5.9	-12	6	6	9	4165

# Following part:
SMILES	PrP 5UTR inh	Sa RN4220 lethal	BJeLR lethal	Mtb hypoxia inh	Mtb hypoxia inh growth	Sa ugtP lethal	Autofluor counter
CCN(C(=O)Cn1c(=O)oc2ccccc21)C1CCS(=O)(=O)C1 (stereo not drawn)	-16	3.1	2	.	.	3	2758
CN(C)CCCN(C(=O)c1cc(Cl)sc1Cl)c1nc2cc3c(cc2s1)OCO3	-8	1.6	2	10	10	9	4507
CCCCCn1c(CN2CCN(C(=O)c3ccco3)CC2)nc2c1c(=O)n(C)c(=O)n2C	-17	-14	1	1	8	-7	5194
COc1cc(OC)c(-n2cc(-c3ccc(OC)c(OC)c3)[nH]c2=S)cc1Cl	-29	8.5	0	-2	0	-10	3816
Cc1csc(NC(=O)CN2C(=O)C3CC=CCC3C2=O)n1 (stereo not drawn)	-6	12	-3	9	5	4	2799
CN(C)CCOC1c2ccccc2CSc2ccccc21 (stereo not drawn)	-9	1.0	-9	4	11	11	3535
COC(=O)c1ccc(CN2C(C(=O)OC)C[C@@]3(O)C(O)C(O)C(O)CC23)cc1 (stereo partly drawn)	.	2.6&6.9	.	4&9	4&10	1&-4	.
O=C(C1CCCN(S(=O)(=O)c2cccc3nonc23)C1)N1CCN(c2ccccc2Cl)CC1 (stereo not drawn)	-17	0.8	11	-3	4	8	7631
CC(=NNC(=O)C1CC1)c1cccc(NC(=O)c2cccc(Cl)c2)c1	.	2.6	.	3	2	-2	.
COc1ccc(-c2nnc(SCC(=O)c3ccc[nH]3)o2)cc1	.	15	-4	0	6	-19	9058
CCc1cccc(NC(=O)CN(C)S(=O)(=O)c2cccs2)c1	-23	7.9	5	9	1	6	3603
O=C(COC(=O)C1COc2ccccc2O1)Nc1cccc(S(=O)(=O)N2CCCCC2)c1 (stereo not drawn)	-16	-0.4	0	5	5	4	3484
CCC(=O)Nc1cccc(NC(=O)c2cccc([N+](=O)[O-])c2C)c1	-33	-0.8	2	0	0	-9	2305
c1ccc(-c2ccc(CN3CC4C(c5ccccc5)C5(c6cccnc6)CC4(C5)C3c3ccccc3)cc2)cc1 (stereo not drawn)	.	0.3	.	-4	7	1	.

# Of the compounds above, 11 contain an aryl thioether with sulfur outside any ring:
SMILES	PrP 5UTR inh	Sa RN4220 lethal	BJeLR lethal	Mtb hypoxia inh	Mtb hypoxia inh growth	Sa ugtP lethal	Autofluor counter
COc1ccc(-c2noc(CSc3nc4sc(C)c(C)c4c(=O)n3-c3ccccc3)n2)cc1	-19	3.1	11	-2	4	32	8447
CCN(CC)CCCn1c2c(c(SCC(=O)Nc3ccc4c(c3)OCCO4)nc1=O)CCC2	-5	2.7	-1	3	-2	6	5626
CC(Sc1nnc(C2CC2)n1-c1ccccc1)C(=O)N1CCNC1=O (stereo not drawn)	-17	2.9	.	9	-1	13	?
COc1ccc(C2Nc3ccccc3C(=O)N2c2ccccc2)cc1CSc1ccccn1 (stereo not drawn)	-25	4.5	-1	16	3	6	2066
CCOc1ccc(CCNC(=O)CSc2cc(=O)n(CC)c3ccccc23)cc1OCC	8	4.4	-8	8	2	0	2477
CSc1ccc(C=NNC(=O)c2cccs2)cc1	.	1.7	.	7	12	6	.
Cc1cccc(Sc2ccc([N+](=O)[O-])cn2)c1	-20	18	-2	12	2	1	2247
Cc1occc1-c1nnc(SCC(=O)N(C)C)o1	0	0.3	-3	5	5	1	19878*
O=C(CSc1nc(-c2ccco2)cc(C(F)(F)F)n1)N1CCN(c2ccc(Cl)cc2)CC1	-3	5.7	2	3	6	-13	3189
CSc1nnc(CCNS(=O)(=O)c2ccccc2Br)n1C	-2	5.6	0	-14	0	4	3068
COc1ccc(-c2nnc(SCC(=O)c3ccc[nH]3)o2)cc1	.	15	-4	0	6	-19	9058

# Assay outcomes: PubChem, several laboratories
